Screens deposited in PubChem BioAssay by Center for Chemical Genomics, University of Michigan.
TAR Tat displ: HIV-1 TAR-Tat binding disruption. HIV-1 TAR RNA, Tat peptide displacement FRET; hits give high values. z-score (test concentration not listed). actives 0.6% (n = 100,000). AID 1259389;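 further: score is relative to mean and SD of negative controls; some compounds called inactive have numbers as strong as hits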
CDC25B CDK2 inh: human CDC25B-CDK2/CyclinA binding inhibition; P30305+P24941; actives 0.72% (n = 94,000); z-score (concentration not given with the values); HTRF CDC25B-CDK2/CyclinA binding, anti-His/anti-Flag; hits give high values; AID 1259370;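 further: score is relative to mean and SD of negative controls; strong numbers were not always called active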
Starred values were filed as active, the others as inactive; . = no result given.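 How the source made its calls: active means z-score from 3 up in half or more of its runs; inactive means the rest.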

Sample of the layout, two compounds:
Order of results – TAR Tat displ	CDC25B CDK2 inh
- CCCn1c2ccccc2c2nnc(SCCN3CCOCC3)nc21
  -1.2	-1.5
- CCCCNC(=O)NS(=O)(=O)c1ccccc1C(F)(F)F
  .	-0.64

The list itself, previewed entries included:
Order of results – TAR Tat displ	CDC25B CDK2 inh
- CCCn1c2ccccc2c2nnc(SCCN3CCOCC3)nc21
  -1.2	-1.5
- CCCCNC(=O)NS(=O)(=O)c1ccccc1C(F)(F)F
  .	-0.64
- O=C1c2ccccc2C(=O)C1c1ccc(Cl)cc1
  2.6	-1.4
- COC(=O)c1c(C)oc2cc(Br)c(OC(C)C(=O)OC)cc12 (centres undefined)
  2.4	-0.28
- CCOC(=O)c1c(C)oc2ncnc(NCc3ccc4c(c3)OCO4)c12
  0.47	.
- COc1ccc(CN=C(C)c2c(O)c3ccccc3n(C)c2=O)cc1
  .	-1.6
- CCCn1c(=O)cc(N)n(-c2ccc(Cl)cc2)c1=O
  .	-0.71
- CC1=C(C(=O)OC(C)C)C(c2ccncc2)c2c(nc(SCc3ccccc3)[nH]c2=O)N1 (centres undefined)
  .	0.45
- COc1ccc(-c2n[nH]c3c2C(c2ccccc2F)NC3=O)cc1 (centres undefined)
  -0.77	.
- COc1cc(OC)cc(-c2noc(-c3ccc[nH]c3=O)n2)c1
  0.04	-2.6
- CCC(C)NC(=O)C1CCCN(S(=O)(=O)c2c(C)noc2/C=C/c2cccs2)C1 (centres undefined)
  0.68	0.21
- COc1ccc2nc(/N=C/c3cc([N+](=O)[O-])cc([N+](=O)[O-])c3O)sc2c1
  .	-1.7
- CC(C)C(NC(=O)c1ccco1)c1nc(-c2ccc3c(c2)nnn3C)no1 (centres undefined)
  0.71	.
- O=C(NCC(c1cccs1)S(=O)(=O)c1cccs1)c1ccco1 (centres undefined)
  0.29	.
- Cc1cc(Br)ccc1NC(=O)NCc1noc2ccccc12
  -0.21	.
- COC(=O)c1cc(C(=O)Nc2nc3ccccc3s2)cc([N+](=O)[O-])c1
  .	-1.9
- Cc1cc(-c2ccc(=O)[nH]n2)cc(S(=O)(=O)NC2CCCCC2C)c1C (centres undefined)
  0.71	.
- Cc1cc(NC(=O)C2CCCN(c3ncnc4onc(C)c34)C2)no1 (centres undefined)
  2.7	.
- O=C(CSc1nc(-c2cccs2)cc(C(F)(F)F)n1)NC1CCCC1
  0.68	-1.1
- CCC(C)NC(=O)Cn1cc2c(n1)CCCCC2 (centres undefined)
  .	0

Part of the list above in order of count of non-hydrogen atoms, ascending.
Order of results – TAR Tat displ	CDC25B CDK2 inh
- CCCn1c2ccccc2c2nnc(SCCN3CCOCC3)nc21
  -1.2	-1.5
- COc1ccc2nc(/N=C/c3cc([N+](=O)[O-])cc([N+](=O)[O-])c3O)sc2c1
  .	-1.7
- CC(C)C(NC(=O)c1ccco1)c1nc(-c2ccc3c(c2)nnn3C)no1 (centres undefined)
  0.71	.

Next part:
Order of results – TAR Tat displ	CDC25B CDK2 inh
- Cc1cn2c(=O)cc(CSc3ccccc3NC(=O)CC(C)C)nc2s1
  -0.07	.
- CCn1cc(S(=O)(=O)c2cc(C)ccc2C)c(=O)c2cc(F)c(F)cc21
  0.16	-3.7
- O=C(CSc1nnc2ccc3ccccc3n12)Nc1ccc(S(=O)(=O)N2CCOCC2)cc1
  1.9	1.5
- CCCOc1ccc(-c2cn3ccccc3n2)cc1
  -2.7	1.3
- Cc1ccc2ncc(C(=O)Nc3cccc(F)c3)c(=O)n2c1
  -0.31	-0.97
- CCOc1cccc(C2c3c(oc4cc(C)c(C)cc4c3=O)C(=O)N2c2nc(C)c(C)s2)c1 (centres undefined)
  -2.3	-0.93
- CC1CCN(C(=O)CN(C)S(=O)(=O)c2ccc3[nH]c4c(c3c2)CCCC4)CC1
  1.2	.
- O=C1CCN(c2cc(Nc3ccc(F)cc3)c3c4c(onc24)-c2ccccc2C3=O)CC1
  1.8	-2.4
- Cn1c(=O)oc2cc(S(=O)(=O)N3CCCCCC3)ccc21
  .	-0.8
- CC1CN(C(=O)c2c(NC(=O)c3cccs3)sc3c2CCC(C(C)(C)C)C3)CC(C)O1 (centres undefined)
  .	2.6
- CC1CC(=O)Nc2cc(S(=O)(=O)Nc3ccc(F)c(Cl)c3)ccc2S1 (centres undefined)
  1	.
- COC(=O)c1ccc(C2c3c(oc4ccccc4c3=O)C(=O)N2c2nc(C)c(C)s2)cc1 (centres undefined)
  -0.54	-0.8
- Cc1ccc(CNC(=O)c2ccc(N3CC(C)Sc4ccccc43)s2)o1 (centres undefined)
  0.52	.
- COC(=O)c1csc(S(=O)(=O)N=S(C)(=O)c2ccc(C)cc2)c1OC (centres undefined)
  .	-1.3
- O=S1(=O)CC(O)C(NCc2ccccc2)C1 (centres undefined)
  0.88	-1.1
- CCOc1ccc(NS(=O)(=O)c2ccc(-c3cc(C)no3)s2)cc1
  0.62	.
- c1ccc(-c2cn3nc(C4CCCCC4)sc3n2)cc1
  0.26	-0.6
- COC(=O)CC/C(=N\NS(=O)(=O)c1ccc(C)cc1)c1ccn(S(=O)(=O)c2ccccc2)c1
  .	-2.2
- Cc1ccc(Nc2c3c(nc4nncn24)CCC3)cc1F
  0.99	-1.4
- CC(C)CCNC(=O)c1cc2sccc2n1C
  0	-2
- Cc1ccc(S(=O)(=O)NC(=O)NCc2ccco2)cc1
  .	0.93
- CCn1c2ccccc2c2nnc(NCc3cccc(OC)c3)nc21
  0.89	-0.48
- C=CCOc1cccc(C2c3c(oc4ccc(F)cc4c3=O)C(=O)N2CCOC)c1 (centres undefined)
  1.1	-0.44
- O=C(NCCCO)Nc1ccc2snnc2c1
  1.5	6.5*
- Cc1ccccc1Cn1c(SC(C)C(=O)O)nc2c1c(=O)n(C)c(=O)n2C (centres undefined)
  2.8	-2.2
- CCC(C)NC(=O)CCS(=O)(=O)c1cc2c(cc1Cl)NC(=O)CO2 (centres undefined)
  2.8	.
- CSc1cccc(NC(=O)C2=Cc3sc(C)c(C)c3CS2)c1
  -4.9	.
- COC(=O)C1=C(C)NC2=C(C(=O)CC(c3ccc(Cl)cc3)C2)C1c1ccc(OC(C)=O)c(OC)c1 (centres undefined)
  -0.24	-0.64
- CCCCNC(=O)C(C)n1ccc2cc(S(=O)(=O)N3CCCC3)ccc21 (centres undefined)
  -0.44	.
- O=C(O)c1ccc2c(c1)C(=O)N(CCCc1nc3ccccc3[nH]1)C2=O
  .	-1.5
- Cc1ccc2ncc(C(=O)Nc3ccc(C(C)C)cc3)c(=O)n2c1
  0.46	-1.2
- O=C(CN1C(=O)COc2ccccc21)NC1CCCC1
  1.4	.
- CCN(CC)C(=O)C1=CC(c2ccco2)=NS(=O)(=O)N1C
  0.57	-2.1
- O=c1c(S(=O)(=O)c2ccc(F)cc2)cn(Cc2cccc(F)c2)c2ccc(F)cc12
  -1.2	-2.3
- Cc1ccc2c(c1)N(Cc1c(F)cccc1Cl)C=NS2(=O)=O
  2.1	.
- CN(C)CCCOC(=O)c1cnn2c(C(F)(F)F)cc(-c3cccs3)nc12
  2.3	-0.01
- O=C1Nc2cccnc2Sc2ccccc21
  .	-1.4
- O=C(C1COc2cc(S(=O)(=O)NC3CCCC3)ccc2O1)N1CCCCC1 (centres undefined)
  0.37	.
- CCOC(=O)c1noc2ncnc(N(C)c3ccccc3F)c12
  -2	.
- c1ccc(-c2nnc(-c3cccs3)o2)cc1
  0.91	1.1

Copied from the list.
Value of `Cc1ccccc1Cn1c(SC(C)C(=O)O)nc2c1c(=O)n(C)c(=O)n2C` (centres undefined) under TAR Tat displ: 2.8
Value of `CCN(CC)C(=O)C1=CC(c2ccco2)=NS(=O)(=O)N1C` under CDC25B CDK2 inh: -2.1

(listing goes on)
Order of results – TAR Tat displ	CDC25B CDK2 inh
- NNC(=S)Nc1ccccc1C(F)(F)F
  .	-0.62
- NCC1O[C@H](O[C@H]2C(O)C(O[C@H]3OC(CO)[C@@H](O)[C@@H](N)C3O)[C@H](N)C[C@H]2N)C(O)[C@H](O)[C@@H]1O (some centres undefined)
  2.6	.
- Cc1csc(C(=O)NCC(=O)NNC(=O)c2cccc(Cl)c2)c1
  .	-1.6
- COc1ccccc1/C=C/c1nc(C#N)c(N2CC(C)CC(C)C2)o1 (centres undefined)
  1.3	-1.2
- COCCNC(=O)Cn1cnc2c(nc3n2CCCCC3)c1=O
  -0.44	.
- Cc1nc(-c2ccc(C)c(S(=O)(=O)Nc3ccc(Cl)cc3C)c2)cs1
  1.5	.
- COc1ccc(-c2nnc(SCc3cccc(Cl)c3)o2)cc1
  -0.84	-2.2
- CCOc1ccc(/C(O)=C2\C(=O)C(=O)N(Cc3cccnc3)C2c2ccc(C)cc2)c(C)c1 (centres undefined)
  0.38	-1.1
- O=C(CN1C(=O)c2ccccc2S1(=O)=O)N1CCN(c2ccccc2F)CC1
  .	0.9
- O=C1CCCN1CCCn1cnc2c([nH]c3ccc(Cl)cc32)c1=O
  2	-1.2
- O=C(c1ccccc1)N1c2nc(-c3cccnc3)nn2C2(CCCCC2)[C@@H]2CCCC[C@@H]21
  -0.29	-0.51
- CN(C)C(c1ccccc1)c1ccccc1
  .	-2.2
- O=C(c1cnn2c3c(cnc12)CCCC3)N1CCOCC1
  -1.4	.
- CCc1c(C)nc2ncnn2c1Nc1cc(OC)ccc1OC
  2.5	-1.6
- CC(=O)Oc1ccc(C)cc1C1=NN(C(C)=O)C(c2sc3ccccc3c2OC(C)=O)O1 (centres undefined)
  -0.26	.
- CC(=O)N1CCc2cc(Br)cc(S(=O)(=O)Nc3ccc4c(c3)sc(=O)n4C)c21
  2.1	.
- COc1ccc(-c2[nH]nc3nc(-c4ccc(O)c(OC)c4)cc(C(=O)O)c23)cc1
  2.5	.
- CC(=O)n1nc(-c2cccnc2)nc1N
  0.36	0.98
- Cc1cc(=O)n2[nH]c(C(F)(F)F)c(-c3ccccc3)c2n1
  .	-0.08
- COc1cc(OCc2ccccc2)ccc1CN1CCC(C(=O)c2ccc(F)cc2)CC1
  .	0.71
- N#CCCN1C(=O)C2(OCCO2)C2CCCCC21 (centres undefined)
  .	1.7
- COc1cccc(CNCCSc2nnnn2-c2ccccc2)c1OC
  2.1	-2.3
- COc1ccc(Nc2ncc3c(n2)CCN(Cc2cc(F)cc(F)c2)C3)c(OC)c1
  0.4	.
- CC1Cn2c(=O)c3ccccc3c(=O)n2C1
  .	-1.9
- Cc1ccc(Nc2nc3ccccc3c3nncn23)c(C)c1
  -0.54	-1.8
- CCOc1c(Nc2cccc(F)c2)c(=O)c1=O
  0.97	.
- O=C(CCc1nc(CSc2nc3ccccc3s2)no1)Nc1ccc(F)cc1
  1.1	.
- CC1(C)Cc2c(C#N)c(N3CCCCC3)nc(Cc3ccccc3)c2CO1
  0.64	-0.75
- CC(=O)N1CCSc2ccc(S(=O)(=O)NC(C)(C)C)cc21
  1.6	.
- Cc1cc(C)c(S(=O)(=O)NCCS(=O)(=O)N2CCN(c3ccccc3)CC2)c(C)c1
  0.66	.
- COc1cc(Br)cc(C2OC(c3ccc(C)nc3)=NN2C(C)=O)c1OC(C)=O (centres undefined)
  2.2	.
- CCC(Sc1nc2ncccc2o1)C(=O)NCc1ccco1 (centres undefined)
  0.71	.
- CCC1(C)Cc2c(sc3nnn(CC(=O)Nc4ccc(Cl)cc4)c(=O)c23)CO1 (centres undefined)
  0.13	-0.93
- Cn1c(=O)c(=O)n(C)c2cc(N3CCC(C(=O)O)CC3)c(N)cc21
  0.91	.
- Cc1ccc(C)c(N2CCN(S(=O)(=O)c3ccc(-c4cc(C)no4)s3)CC2)c1
  -0.49	.
- O=C(CN1C(=O)CCc2cc(S(=O)(=O)N3CCCCC3)ccc21)N1CCc2ccccc21
  -1	.
- CC(C)c1nn2c(=O)c(NC(=O)c3ccc(F)cc3)cnc2s1
  0.09	-0.41
- Fc1ccc(C(Nc2cccc(F)c2)c2nnc(-c3ccccc3)o2)cc1 (centres undefined)
  1.7	-2.2
- COc1cccc(/C=C/c2nc(O)c([N+](=O)[O-])c(=O)[nH]2)c1
  1.1	-2
- C/C(=N\OC(=O)c1ccccc1)c1csc(-c2cc(C)on2)n1
  .	-1.6
- O=C(CCCN1C(=O)C2C3C=CC(C3)C2C1=O)N1CCN(c2cccc(Cl)c2)CC1 (centres undefined)
  .	-2.2
- N#CC1=C(N)OC(C2CC2)=C(C#N)C1c1cccs1 (centres undefined)
  .	-0.51
- COc1cc(C2Nc3ccccc3NC3=C2C(=O)CC(c2ccccc2Cl)C3)ccc1O (centres undefined)
  -8.8	5
- O=C(NC1CCCC1)c1cc(-c2ccncc2)n[nH]1
  0.59	.
- Cn1c(C(=O)NCCc2c[nH]c3ccccc23)cc2c(=O)n3ccccc3nc21
  1.2	.
- C=CCSc1ncnc2c1sc1nc(-c3ccco3)c3c(c12)CC(C)(C)OC3
  0.42	0.46
- COC(=O)c1cc(S(=O)(=O)N2CCCC(C)C2)cn1C (centres undefined)
  1	-0.34
- CCc1ccc(NC(=O)CSc2nnc(CC)n3c2cc2occc23)cc1
  -9.4	.
- COc1ccc(NS(=O)(=O)c2ccc3oc(=O)c4ncn(C)c4c3c2)cc1OC
  1.2	.
- CCOc1ccccc1Nc1nc2ccccc2n2cnnc12
  -0.21	-2.7
- CCc1ccc(C(C(=O)NC2CCCCC2)N(C(=O)c2cnccn2)c2cccs2)cc1 (centres undefined)
  1.3	-1.9
- O/N=C/c1ccnc(SCc2ccc(Cl)cc2)n1
  .	-0.98

Entries of single compounds as entered above. Order of screens: TAR Tat displ, CDC25B CDK2 inh
Entry for Cc1ccccc1Cn1c(SC(C)C(=O)O)nc2c1c(=O)n(C)c(=O)n2C (centres undefined) : 2.8, -2.2
Entry for CCc1ccc(NC(=O)CSc2nnc(CC)n3c2cc2occc23)cc1 : -9.4, .
Entry for COC(=O)c1csc(S(=O)(=O)N=S(C)(=O)c2ccc(C)cc2)c1OC (centres undefined) : ., -1.3
Entry for N#CC1=C(N)OC(C2CC2)=C(C#N)C1c1cccs1 (centres undefined) : ., -0.51
Entry for COC(=O)c1cc(S(=O)(=O)N2CCCC(C)C2)cn1C (centres undefined) : 1, -0.34
